# Assay outcomes as filed in PubChem BioAssay.
# BJeLR viab HTS: compounds reducing viability of BJeLR cells | viability loss activity score, % (concentration not given with the values) | BJeLR fibroblasts viability, CellTiterGlo ATP luminescence, 48 h; HRASV12, hTERT and SV40 LT/ST transformed | 30,000 compounds, 0.64% hits; in the data active = viability loss activity score above about 50%; about a fifth of its hits are not listed in these tables;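 also: higher score means fewer live cells and less ATP luminescence; stock transfer was 50 or 100 nL into about 30 µL; 0% = vehicle wells and 100% = a reference killing control; one replicate is shown; the record names a cut of 85%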
# A1 inhib: A1 inhibition; MEF A1-2A-BIM cells, caspase-Glo luminescence, 3 h; percent of clofoctol signal, DMSO as zero; caspase activation, % (no concentration beside the values); 21,000 compounds, 0.51% hits; AID 2241;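 active = most replicate scores above 10, or exactly half above 10 with mean activity above 10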;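 also: effector caspase 3 and 7 activity cleaving a DEVD luciferin substrate; 50 nL library stock added to about 30 µL; numbers are from one replicate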
# The depositor's hits bear a star; x = no result given.
# Results follow in this order: BJeLR viab HTS, A1 inhib
- O=C(c1ccc(COc2cccc3ccccc23)cc1)N1CCCCC1
    1.4, x
- C[C@@H]1CN([C@@H](C)CO)C(=O)c2cccc(NC(=O)Nc3ccccc3)c2O[C@H]1CN(C)S(=O)(=O)c1cn(C)cn1
    -5.0, x
- C[C@H](CO)N1C[C@H](C)[C@@H](CN(C)C(=O)Nc2ccc3c(c2)OCO3)Oc2ccc(NC(=O)NC3CCCCC3)cc2C1=O
    -4.4, -0.4
- N#CC(C(=O)c1cccs1)=C1SCCCS1
    -0.7, -3.4
- CCc1cc2[nH]c(C(=O)OC)cc2s1
    2.3, -2.1
- O=C(NCC1CCCN2CCCCC12)c1cccc(Br)c1 (stereo not given)
    -0.4, 0.7
- CC(C)NC(=O)Nc1cccc2c1O[C@@H](CN(C)S(=O)(=O)c1ccccc1)[C@@H](C)CN([C@H](C)CO)C2=O
    0.6, x
- CCc1ccc(Oc2coc3cc(OC(=O)c4ccco4)ccc3c2=O)cc1
    -5.5, x
- COc1ccc(OC)c(C(O)CNC(=O)CN)c1 (stereo not given)
    2.7, 0.6
- CCCc1cc(-c2nc(-c3ccc(Br)cc3)cs2)ccn1
    0.0, 2.1
- COc1ccc(CCNC(=O)CCCc2cn(C)c3ccccc23)cc1OC
    -3.8, -0.7
- CC(C)NC(=O)N(C)C[C@H]1Oc2ccc(NS(C)(=O)=O)cc2C(=O)N([C@@H](C)CO)C[C@@H]1C
    1.2, 0.9
- CCc1ccc(-n2cnc3cc(C(=O)NCCc4ccccc4)ccc32)cc1
    7.4, -0.3
- C[C@H](CO)N1C[C@H](C)[C@H](CN(C)S(=O)(=O)c2cn(C)cn2)Oc2ccc(NC(=O)Cn3cnnn3)cc2C1=O
    0.1, 1.1
- C[C@H]1CN([C@@H](C)CO)C(=O)c2cc(NC(=O)Cc3cn(C)c4ccccc34)ccc2O[C@@H]1CN(C)S(=O)(=O)c1ccc(Cl)cc1
    11, -0.3
- C[C@H](CO)N1C[C@H](C)[C@@H](CN(C)S(=O)(=O)c2ccc(F)cc2)Oc2ccc(NC(=O)CCCCCC(=O)Nc3ccccc3N)cc2C1=O
    -2.3, x
- COC(=O)c1cn(NC(=O)C2CCCO2)c(=O)c2ccccc12 (stereo not given)
    -1.7, x
- COc1ccc(C(=O)NC(c2c(C)[nH]n(-c3ccccc3)c2=O)(C(F)(F)F)C(F)(F)F)cc1
    7.6, x
- CC(C)NC(=O)Nc1ccc2c(c1)C(=O)N([C@H](C)CO)C[C@H](C)[C@H](CN(C)Cc1ccc(C(F)(F)F)cc1)O2
    0.4, 0.7
- C[C@H]1CN([C@@H](C)CO)C(=O)c2cccc(NS(=O)(=O)c3ccc(F)cc3)c2O[C@@H]1CN(C)C
    -18, x

# Results follow in this order: BJeLR viab HTS, A1 inhib
- CC(C)(C)N=C(NS(=O)(=O)c1ccc(Br)cc1)c1ccccc1
    -3.9, 0.8
- Cc1ccc(S(=O)(=O)Nc2ccc3oc(=O)sc3c2)cc1
    2.8, x
- NS(=O)(=O)c1ccc(N=CC2=C(O)c3ccccc3C2=O)cc1
    -1.7, -1.5
- C[C@H]1CN([C@@H](C)CO)C(=O)c2cccc(NC(=O)c3ccc(-c4nccs4)cc3)c2O[C@@H]1CN(C)Cc1ccccc1
    -11, x
- C[C@H](CO)N1C[C@H](C)[C@H](CN(C)Cc2ccc3c(c2)OCO3)Oc2ccc(NS(C)(=O)=O)cc2C1=O
    -2.3, 0.3
- Cc1noc(C)c1NC(=O)Nc1ccc2c(c1)C(=O)N([C@@H](C)CO)C[C@@H](C)[C@@H](CN(C)Cc1ccc(C(=O)Nc3ccccc3N)cc1)O2
    2.4, x
- C[C@H]1CN([C@@H](C)CO)C(=O)c2cccc(NC(=O)NC3CCCCC3)c2O[C@@H]1CN(C)S(=O)(=O)c1ccccc1
    -3.0, x
- COc1ccc(C(=O)NC(=O)c2ccccc2O)cc1OC
    4.4, -3.0
- CCN1C(=O)c2cccc3c(S(=O)(=O)NCCc4ccc(OC)c(OC)c4)ccc1c23
    4.4, x
- COc1ccc(S(=O)(=O)Nc2cccc3c2O[C@H](CN(C)Cc2ccccc2)[C@H](C)CN([C@H](C)CO)C3=O)cc1
    -1.1, x
- C[C@@H]1CN([C@@H](C)CO)C(=O)c2cccc(NC(=O)c3cnccn3)c2O[C@@H]1CN(C)C(=O)Nc1cccc2ccccc12
    -5.2, x
- CC(=O)NCc1c(F)cccc1Cl
    0.8, -0.4
- C[C@@H]1CN([C@H](C)CO)C(=O)c2cc(NC(=O)Cc3ccccc3)ccc2O[C@@H]1CN(C)Cc1ccc(Cl)c(Cl)c1
    -2.7, -0.1
- CNC[C@@H]1Oc2c(NC(=O)c3ccncc3)cccc2C(=O)N([C@@H](C)CO)C[C@@H]1C
    -3.4, x
- Cc1noc(C)c1S(=O)(=O)Nc1ccc2c(c1)C(=O)N([C@H](C)CO)C[C@@H](C)[C@H](CN(C)Cc1ccc(Oc3ccccc3)cc1)O2
    -2.0, 0.6
- O=C(NCc1ccc(Cl)cc1)c1cnn2ccccc12
    -0.8, -1.9
- O=c1ncn(Cc2ccccn2)cc1-c1ccccc1
    1.4, -0.2
- Cc1noc(C)c1NC(=O)N(C)C[C@@H]1Oc2ccc(NS(=O)(=O)c3ccccc3)cc2C(=O)N([C@H](C)CO)C[C@@H]1C
    -2.9, 0.4
- CC(=O)O[C@@H]1CC[C@@]2(C)C(C[C@@H](OC(C)=O)[C@@]3(C)C4=CC(=O)O[C@@H](c5ccoc5)[C@]4(C)CCC23)C1(C)C (stereo not given in full)
    -4.5, 0.0
- COc1ccc(NC(=O)N(C)C[C@@H]2Oc3c(NS(=O)(=O)c4ccccc4)cccc3C(=O)N([C@@H](C)CO)C[C@H]2C)cc1
    3.0, x

# Results follow in this order: BJeLR viab HTS, A1 inhib
- CC(C)(O[C@@H]1O[C@H](CO)[C@@H](O)[C@H](O)[C@H]1O)[C@@H](O)COc1c2ccoc2cc2oc(=O)ccc12
    -4.5, 0.9
- C[C@@H]1CN([C@H](C)CO)C(=O)c2cc(NS(=O)(=O)c3ccc(F)cc3)ccc2O[C@@H]1CN(C)C(=O)Nc1ccc(C(F)(F)F)cc1
    0.8, 0.5
- C[C@H]1CN([C@@H](C)CO)C(=O)c2cccc(NC(=O)c3ccc(-c4nccs4)cc3)c2O[C@H]1CN(C)C(=O)Nc1ccc(C(F)(F)F)cc1
    -1.2, x
- O=C(Cc1ccc(NC2=NC3CS(=O)(=O)CC3S2)cc1)Nc1ccccc1 (stereo not given)
    -5.3, 0.8
- C[C@@H]1CN([C@H](C)CO)C(=O)c2cc(NC(=O)Nc3ccccc3)ccc2O[C@H]1CN(C)Cc1ccccc1
    1.0, 0.7
- C=CCn1c(Sc2ncnc3c2cnn3-c2ccccc2)nnc1-c1ccncc1
    69*, 1.3
- O=C(O)c1cc(=O)[nH]c2c(C(F)(F)F)cccc12
    5.2, 0.1
- Cc1ccc(S(=O)(=O)Nc2ccc3c(c2)C(=O)N([C@H](C)CO)C[C@@H](C)[C@@H](CN(C)C(=O)Nc2ccc4c(c2)OCO4)O3)cc1
    1.9, -0.3
- Cc1cc(C(=O)Nc2cccc3c2O[C@H](CN(C)CC2CCCCC2)[C@H](C)CN([C@H](C)CO)C3=O)n(C)n1
    4.1, x
- CC(c1ccccc1)n1c(SCc2cc(=O)oc3cc(O)ccc23)n[nH]c1=O (stereo not given)
    5.5, -0.4
- Cc1noc(C)c1NC(=O)Nc1cccc2c1O[C@H](CN(C)C(=O)Nc1ccc(C(F)(F)F)cc1)[C@H](C)CN([C@H](C)CO)C2=O
    2.6, x
- CC(=O)Nc1ccc(S(=O)(=O)N2CCc3ccccc32)cc1
    4.9, -0.7
- O=C(Nc1cccc(-c2cn3cccnc3n2)c1)C1CCCC1
    1.2, x
- CN(C)C(=O)CSc1nnc(-c2ccco2)o1
    -1.3, 0.5
- Cc1noc(C)c1NC(=O)Nc1cccc2c1O[C@H](CN(C)C(=O)NC1CCCCC1)[C@@H](C)CN([C@@H](C)CO)C2=O
    0.3, x
- CC(N=C1CCCc2ccccc2N1)C(=O)O (stereo not given)
    -3.8, 0.1
- O=C(Nc1ccccc1C(=O)N1CCCC1)c1cccc(I)c1
    -3.0, x
- C[C@@H]1CN([C@H](C)CO)C(=O)c2cc(NS(=O)(=O)c3cccs3)ccc2O[C@@H]1CN(C)S(=O)(=O)c1ccc(Cl)cc1
    1.4, -0.8
- CC1Nc2ccc(Cl)cc2S(=O)(=O)N1 (stereo not given)
    -9.5, -0.4
- Cc1noc(C)c1NC(=O)N(C)C[C@H]1Oc2c(NC(=O)NC3CCCCC3)cccc2C(=O)N([C@H](C)CO)C[C@H]1C
    -6.5, x

# Results follow in this order: BJeLR viab HTS, A1 inhib
- C[C@@H]1CN([C@H](C)CO)C(=O)c2cccc(NS(=O)(=O)c3cccs3)c2O[C@H]1CN(C)Cc1ccncc1
    -3.1, x
- C[C@H](CO)N1C[C@H](C)[C@@H](CN(C)C)Oc2ccc(NC(=O)Nc3ccc(C(F)(F)F)cc3)cc2C1=O
    6.5, 1.2
- COC(=O)c1c(C)oc2ccc(N(C(=O)Oc3ccccc3)S(=O)(=O)c3ccc(C)cc3)cc12
    0.4, 0.0
- COc1ccc(C(c2ccc3cccnc3c2O)N2CCOCC2)cc1 (stereo not given)
    30, 43*
- CC(C)NC(=O)N(C)C[C@H]1Oc2c(NS(C)(=O)=O)cccc2C(=O)N([C@@H](C)CO)C[C@H]1C
    1.8, x
- COc1ccc(C2=Nn3c(nc4sc5c(c4c3=O)CCCC5)SC2)cc1
    -0.7, 0.0
- Cc1cccc(-n2cnc3cc(C(=O)NCCC4=CCCCC4)ccc32)c1
    -5.5, -0.7
- c1ccc(Cc2nc3ccc4[nH]snc4c3n2)cc1
    1.7, -2.6
- CCOc1ccc2c(c1)C(=O)c1cc(OCC)ccc1-2
    2.4, -0.6
- C[C@@H]1CN([C@H](C)CO)C(=O)c2cccc(NC(=O)c3ccncc3)c2O[C@@H]1CN(C)Cc1ccc2c(c1)OCO2
    0.1, x
- Cc1ccccc1OCC(=O)NC1CCCCC1
    1.8, -1.4
- COc1cc(C2C(C#N)=C(C)Nc3oc(C)nc32)ccc1OCCN1CCOCC1 (stereo not given)
    2.3, 0.5
- C[C@@H]1CN([C@@H](C)CO)C(=O)c2cc(NC(=O)CCC(F)(F)F)ccc2O[C@@H]1CN(C)S(=O)(=O)c1cccs1
    -1.2, 0.7
- Cc1cc(C(=O)Nc2cccc3c2O[C@H](CN(C)C(=O)NC2CCCCC2)[C@@H](C)CN([C@@H](C)CO)C3=O)n(C)n1
    3.0, x
- COc1ccc(NC(=O)N(C)C[C@H]2Oc3c(NC(=O)Nc4ccc(F)cc4)cccc3C(=O)N([C@H](C)CO)C[C@H]2C)cc1
    -3.4, x
- Cc1ccc(S(=O)(=O)Nc2cccc3c2O[C@H](CN(C)S(C)(=O)=O)[C@H](C)CN([C@H](C)CO)C3=O)cc1
    5.4, x
- O=C(CCN1CCOCC1)N1c2ccccc2Sc2ccc(Cl)cc21
    -2.2, -0.4
- CN1C(C(=O)NCC2CCCO2)=CC(c2cccs2)=NS1(=O)=O (stereo not given)
    -1.5, 0.5
- CC1C(=O)c2cc3c(cc2CCN(C)Cc2c1ccc1c2OCO1)OCO3 (stereo not given)
    -1.0, 0.0
- COc1ccc(S(=O)(=O)Nc2cccc3c2O[C@H](CN(C)CC2CC2)[C@H](C)CN([C@H](C)CO)C3=O)cc1
    -4.2, x

# Printed as active in A1 inhib, of those listed so far:
SMILES	A1 inhib
COc1ccc(C(c2ccc3cccnc3c2O)N2CCOCC2)cc1 (stereo not given)	43*

# Additional compounds.
# Results follow in this order: BJeLR viab HTS, A1 inhib
- O=C(Nc1ccccc1)N1c2ccccc2CCc2ccccc21
    5.8, -0.2
- C[C@H]1CN([C@@H](C)CO)C(=O)c2cccc(NS(=O)(=O)c3ccc(F)cc3)c2O[C@H]1CN(C)C
    6.3, x
- CC(CO)(CO)NC(=S)Nc1ccc(F)c(Cl)c1
    5.1, -0.1
- CCOC(=O)C1=NN(c2ccccc2)CC1C(=O)OC (stereo not given)
    1.5, -0.3
- CCOc1ccc(C(=O)NC(C)c2ccccc2)cc1 (stereo not given)
    -4.2, -0.1
- O=C(/C=C/c1ccccc1)Oc1ccc2ccccc2c1
    -1.1, 0.4
- C/C=C/C#CC#C[C@@H](O[C@@H]1O[C@H](CO)[C@@H](O)[C@H](O)[C@H]1O)[C@H](O)/C=C/CCCO
    -3.1, -0.8
- O=C(NCc1ccc(-c2cccs2)cc1)C1=Cc2ccccc2OC1
    0.8, 1.6
- C[C@H](CO)N1C[C@H](C)[C@@H](CN(C)Cc2ccccc2)Oc2c(NC(=O)C3CCCCC3)cccc2C1=O
    -10, x
- Cc1noc(C)c1S(=O)(=O)Nc1ccc2c(c1)C(=O)N([C@@H](C)CO)C[C@H](C)[C@@H](CN(C)Cc1ccccc1)O2
    -7.3, 0.0
- Cc1ccc(S(=O)(=O)N(C)C[C@@H]2Oc3c(NC(=O)c4nc5ccccc5s4)cccc3C(=O)N([C@H](C)CO)C[C@H]2C)cc1
    2.5, x

# In the list so far, these have bromine:
# Results follow in this order: BJeLR viab HTS, A1 inhib
- O=C(NCC1CCCN2CCCCC12)c1cccc(Br)c1 (stereo not given)
    -0.4, 0.7
- CCCc1cc(-c2nc(-c3ccc(Br)cc3)cs2)ccn1
    0.0, 2.1
- CC(C)(C)N=C(NS(=O)(=O)c1ccc(Br)cc1)c1ccccc1
    -3.9, 0.8

# Some of the entries so far, with bars between the fields:
mol | BJeLR viab HTS | A1 inhib
C[C@H](CO)N1C[C@H](C)[C@@H](CN(C)Cc2ccccc2)Oc2c(NC(=O)C3CCCCC3)cccc2C1=O | -10 | x
CCOc1ccc(C(=O)NC(C)c2ccccc2)cc1 (stereo not given) | -4.2 | -0.1

# This is a subset (hit frequency here may not be typical).
